Source: PubChem
GALR2 ag: GALR2 receptor agonists, primary screen, cell-based | Galanin receptor type 2 (Homo sapiens), O43603 | GALR2-expressing cells, agonist activation read-out | activation, %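 (tested at 5 µM)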 | 0.48% of 140,000 active | AID 803, 2007;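 active = above mean plus 3 SD of all compounds, about 5% in these data, not always enough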;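 note: 0% = vehicle buffer wells and 100% = reference agonist at full effect; tested in CHO reporter cells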
Target sequence (O43603 whole entry, looked up): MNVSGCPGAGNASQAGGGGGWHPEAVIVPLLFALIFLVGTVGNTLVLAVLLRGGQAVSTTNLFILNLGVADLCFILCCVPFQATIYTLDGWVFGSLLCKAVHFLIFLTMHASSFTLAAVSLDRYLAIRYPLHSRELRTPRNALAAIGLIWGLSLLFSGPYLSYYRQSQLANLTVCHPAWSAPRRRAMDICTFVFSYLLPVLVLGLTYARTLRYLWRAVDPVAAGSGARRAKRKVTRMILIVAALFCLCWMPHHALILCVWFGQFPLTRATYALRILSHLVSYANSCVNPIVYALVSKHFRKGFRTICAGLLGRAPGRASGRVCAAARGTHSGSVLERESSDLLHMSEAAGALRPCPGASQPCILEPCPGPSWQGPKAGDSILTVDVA
INS promoter inh: inhibitors of insulin promoter-driven GFP, primary screen, imaging, TRM-6 cells (human fetal islet line), eGFP reporter, cell count. 0.9% of 130,000 active. inhibition, % at 2 µM. reporter expression induced with tamoxifen;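 active = inhibition above the mean plus 3 SD, with well images judged a real hit on visual review, cut at about 60% in these data, passing the limit was not always enough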
HSV augment: enhancers of HSV replication in host cells, fold increase, host cell viability; 0.005% of 220,000 active; AID 1956, 2009; HSV replication augmentation in cells; maximum fold increase;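 active = peak rise of 1.5-fold or more in the series; tested in PC3 cells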;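 note: first round at 10 µM; read as green reporter fluorescence; hits show the peak of a series up to 25 µM; 1 = signal of infected wells without compound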
RGS16-Gao HTS: modulators of RGS16 binding to Galphao, primary screen, biochemical, human proteins, multiplexed bead flow cytometry; 0.38% of 220,000 active; binding response (% of control), % at 10 µM; AID 1441, 2008; Regulator of G-protein signaling 16 (Homo sapiens) + Guanine nucleotide-binding protein …; bead-based flow cytometry RGS16-Galphao binding, fluorescence; actives lie on both sides;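 active = below 25% or above 175%, edge rows of some plates excepted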;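 note: Galphao activated by GDP with aluminum fluoride before binding; 100% = wells without compound and 0% = beads without RGS; some results beyond the cut were filed as inactive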
Target sequence (O15492 whole entry, looked up): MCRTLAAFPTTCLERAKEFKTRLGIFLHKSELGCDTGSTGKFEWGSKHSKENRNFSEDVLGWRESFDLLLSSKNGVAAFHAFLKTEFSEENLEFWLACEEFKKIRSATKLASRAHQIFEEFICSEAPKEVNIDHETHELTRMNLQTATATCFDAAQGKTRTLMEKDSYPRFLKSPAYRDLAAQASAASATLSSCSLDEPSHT
Target sequence (P09471 whole entry, looked up): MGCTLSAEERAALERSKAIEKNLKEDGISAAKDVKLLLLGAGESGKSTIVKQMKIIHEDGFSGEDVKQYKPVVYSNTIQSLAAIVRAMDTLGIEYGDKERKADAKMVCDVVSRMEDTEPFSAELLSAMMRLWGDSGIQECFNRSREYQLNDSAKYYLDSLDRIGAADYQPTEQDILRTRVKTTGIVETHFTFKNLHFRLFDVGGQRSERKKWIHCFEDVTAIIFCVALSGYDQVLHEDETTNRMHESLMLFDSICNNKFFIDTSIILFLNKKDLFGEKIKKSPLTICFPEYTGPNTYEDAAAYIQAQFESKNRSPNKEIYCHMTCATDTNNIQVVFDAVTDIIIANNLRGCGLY
PKD1 kinase inh: inhibitors of human PKD1 kinase, biochemical, fluorescence polarization | AID 797, 2007 | inhibition, %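 (about 10 µM by stock and volumes)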 | 0.056% of 200,000 active | PKD1 kinase fluorescence polarization assay | Serine/threonine-protein kinase D1 (Homo sapiens), Q15139;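 active = inhibition of 50% or more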;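 note: controls were vehicle for no effect and a reference inhibitor for full effect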
INS promoter inh cell count: also measured in INS promoter inh; calls as there; normalized cell count, %; measured here: cell count, toxicity; reference of the scale not given here;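 cells exposed to compound for 48 h; stained nuclei by imaging scaled within each plate; lower means fewer cells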
HSV augment primary fold: recorded beside HSV augment, whose call it bears; fold increase; compound at 10 µM; measured here: primary screen fold increase 10 uM; tested in PC3 cells;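 GFP signal in the first replicate; 1 = infected wells without compound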
* hit, by the source's call; i = inactive; · = no result given.

cpd	mol	GALR2 ag	INS promoter inh	INS promoter inh cell count	HSV augment
1	CCCCC(=O)Nc1ccc(C(=O)NNC(=S)NC(=O)c2cccs2)cc1	-1.6	·	·	i
2	C=CCn1c(SCC(=O)N2CC(=O)Nc3ccccc32)nc2scc(-c3ccccc3)c2c1=O	-2.6	-17	177	i
3	Cc1cccc(NC(=S)NC2CCCC2)c1	-0.6	·	·	i
4	COc1ccc(/C(O)=C2/C(=O)C(=O)N(CCCN(C)C)C2c2ccccc2)cc1Cl (configuration not stated)	-1.1	·	·	i
5	Cc1ccc(S(=O)(=O)N2CCN(S(=O)(=O)c3ccccc3)C2)cc1	-0.4	-17	71	·
6	CCOc1cccc(C(=O)N(Cc2ccc(F)cc2)C2CCS(=O)(=O)C2)c1 (configuration not stated)	-1.7	-19	79	i
7	CN(CC(=O)Nc1cccc(F)c1)CC(=O)Nc1cccc(S(=O)(=O)N2CCCCCC2)c1	·	·	·	i
8	COc1ccccc1N(C1=NCCCS1)S(=O)(=O)c1ccc(C(C)(C)C)cc1	·	·	·	i

cpd	HSV augment primary fold	RGS16-Gao HTS	PKD1 kinase inh
1	1	108	-4
2	0.97	95	-4
3	0.84	94	-8
4	0.82	109	13
5	·	91	-8
6	0.96	97	-4
7	0.95	100	·
8	1.2	97	6

Next part
cpd	mol	GALR2 ag	INS promoter inh	INS promoter inh cell count	HSV augment
9	Cc1cccc(Cn2c(Cc3ccccc3)nc3ccccc32)c1	-1.1	5	61	i
10	CN(c1ccccc1C(=O)Nc1ccc(S(=O)(=O)N2CCOCC2)cc1)S(=O)(=O)c1ccccc1	-1.3	33	89	i
11	COc1ccc(/C=C/C(=O)c2ccc(OC)cc2O)cc1	-3.0	52	110	i
12	Cc1ccc2ccc(C(Nc3cccc(C(F)(F)F)c3)c3cccnc3)c(O)c2n1 (configuration not stated)	·	·	·	i
13	Cc1ccc(C(=O)NC(=S)Nc2ccccc2C)cc1	·	·	·	i
14	Cc1nn(C)c(C)c1NC(=O)CCl	·	·	·	i
15	COc1ccc(NC(=O)Nc2ccc(OC)cc2)cc1	-2.6	-30	125	·
16	CCn1nc(NC(=O)Cc2ccc(OC)cc2)c2cc3cccc(C)c3nc21	·	·	·	i

cpd	HSV augment primary fold	RGS16-Gao HTS	PKD1 kinase inh
9	0.79	94	-4
10	0.77	27	-2
11	1	101	-3
12	0.85	99	-5
13	0.98	100	3
14	1	108	20
15	·	105	-7
16	0.94	99	·

Additional records follow:
cpd	mol	GALR2 ag	INS promoter inh	INS promoter inh cell count	HSV augment
17	CSc1cccc(NC(=O)OC2CCCCCCCCCCC2)c1	·	·	·	i
18	COc1ccc(NC(=O)CN2CCN(CC(=O)Nc3ccc4c(c3)OCO4)CC2)cc1	-0.5	·	·	i
19	C#CCNC(=O)C1=C[C@@H](C(C)(C)C)C[C@@H](OCc2ccc(CO)cc2)O1	·	·	·	i
20	CSc1ccc(/C=C/C(=O)c2ccc(NC(=O)C(C)C)cc2)cc1	-2.5	·	·	i
21	COc1cc(NC(=O)c2cc3ccccc3o2)c(OC)cc1Cl	-2.4	23	117	i
22	Cc1cc(C)c(C#N)c(SC(C(=O)NC(C)(C)C)c2ccccc2)n1 (configuration not stated)	·	·	·	i
23	O=S(=O)(c1ccc(NC(=S)NN=C2CCCCC2)cc1)N1CCOCC1	·	·	·	i
24	O=C(Nc1ccc(N2CCCCC2)cc1)c1ccccc1	-1.8	·	·	i

cpd	HSV augment primary fold	RGS16-Gao HTS	PKD1 kinase inh
17	1.1	100	·
18	1	99	2
19	0.97	17*	8
20	0.91	102	-3
21	0.77	101	5
22	1.1	97	·
23	0.78	106	-1
24	0.78	101	-1

The list continues.
cpd	mol	GALR2 ag	INS promoter inh	INS promoter inh cell count	HSV augment
25	Cc1occc1-c1nnc(-c2cc([N+](=O)[O-])cc([N+](=O)[O-])c2)o1	·	·	·	i
26	O=C(Nc1nc2ccc(Cl)cc2s1)c1ccc(N2CCCCC2)c([N+](=O)[O-])c1	-0.1	55	113	i
27	CC(=O)C1=C(C)NC(=S)NC1c1cccc([N+](=O)[O-])c1 (configuration not stated)	·	8	97	i
28	O=C(Nc1ccc(N2CCCC2)cc1)c1ccc(Br)o1	-0.3	-84	79	i
29	CCCC(=O)Nc1nc(C)c(-c2csc(Nc3ccccc3C)n2)s1	-0.8	·	·	i
30	COC(=O)c1ccc(OCC(O)CN(CCO)CC(O)Cn2ccc3ccccc32)cc1 (configuration not stated)	0.6	·	·	i
31	O=C(NC(Cc1c[nH]c2ccccc12)C(=O)N1CCOCC1)c1cccs1 (configuration not stated)	·	9	145	i
32	S=C(NC1CCCCC1)N1CCN(Cc2ccccc2)CC1	-1.0	-24	121	i

cpd	HSV augment primary fold	RGS16-Gao HTS	PKD1 kinase inh
25	0.9	98	-8
26	0.82	102	-4
27	0.95	138	-6
28	0.9	99	3
29	0.74	115	2
30	1.1	108	4
31	0.98	113	-7
32	1	100	4

Following part
cpd	mol	GALR2 ag	INS promoter inh	INS promoter inh cell count	HSV augment
33	N#Cc1ccc(-c2ccc(F)cc2)nc1Sc1ccc(F)cc1	-1.9	·	·	i
34	COC(=O)COc1cccc2c(=O)n(CC(=O)NCCc3ccccc3)ccc12	-1.4	25	61	i
35	Cc1nnc(N(C)C(=O)c2ccncc2)s1	·	·	·	i
36	Cc1[nH]c2ccccc2c1C(=O)CNc1nccs1	-1.1	44	114	i
37	COc1ccc(CN2C(=O)c3ccccc3C2=O)cc1C(=O)Nc1ccc(C)cc1C	-0.8	·	·	i
38	COc1ccc(CC(NC(C)=O)C(=O)NC2CCN(c3c4c(nc5ncnn35)CCC4)CC2)cc1 (configuration not stated)	-0.5	·	·	i
39	COc1ccccc1OCc1nnc(SCC(=O)NCc2ccco2)n1Cc1ccco1	-2.2	-12	93	i
40	COc1ccc(S(=O)(=O)N2CCN(C(=O)[C@@H]3CCC(=O)N3C3OC(=O)c4ccccc43)CC2)cc1 (some centres not stated)	-0.6	·	·	i

cpd	HSV augment primary fold	RGS16-Gao HTS	PKD1 kinase inh
33	0.83	98	1
34	0.81	84	-6
35	0.99	106	1
36	1	108	-2
37	0.89	104	1
38	1.1	99	-1
39	0.64	101	2
40	1	110	6

(listing goes on)
cpd	mol	GALR2 ag	INS promoter inh	INS promoter inh cell count	HSV augment
41	CC(C)N1CCC(NC(=O)Nc2ccccc2)CC1	·	0	88	i
42	CS(=O)(=O)N(C(=O)NC(=O)NC1CCS(=O)(=O)C1)C1CCCCC1 (configuration not stated)	-1.4	·	·	i
43	Cc1nc(NC(=O)c2cc(-n3cnnc3)ccc2Cl)ccc1Br	-2.7	-10	97	i
44	c1cc2c(cc1Nc1nc(-c3ccc4c(c3)OCO4)cs1)OCCO2	-1.5	-3	143	i
45	Cc1csc(NC(=O)CSc2nnc(C)c(=O)n2N)n1	·	·	·	i
46	Cc1ccc(CC2CC(=O)N(c3ccc(C)cc3)C2=O)cc1 (configuration not stated)	·	·	·	i
47	CC(C)(Oc1ccc(Br)cc1)C(=O)N1CCc2ccccc21	0.5	3	115	i
48	CCCCNC(=S)N(C)/N=C/c1ccccc1F	-0.1	38	109	i

cpd	HSV augment primary fold	RGS16-Gao HTS	PKD1 kinase inh
41	1.1	100	-4
42	1	102	-3
43	0.97	110	-3
44	0.94	95	-13
45	0.99	100	-9
46	0.96	98	2
47	1	99	-2
48	1.1	105	1

Next section.
cpd	mol	GALR2 ag	INS promoter inh	INS promoter inh cell count	HSV augment
49	C/C(=N\NC(=O)CSc1nnc(C)s1)c1ccc(O)cc1	-1.8	-25	59	i
50	Cn1c(CN2CCCC(C(=O)c3ccc4c(c3)OCO4)C2)nc2ccccc21 (configuration not stated)	·	·	·	i
51	CC1(c2cccs2)CC(c2cccs2)=C(C#N)C(=O)N1 (configuration not stated)	-2.1	17	91	i
52	Cc1c(C(N)=O)c(N)c(C(=O)c2ccccc2)n1-c1ccccc1	-1.4	-9	99	i
53	CCC(C)C(NC(=O)C1CCC(C)CC1)C(=O)Nc1cc(OC)ccc1OC (configuration not stated)	-2.8	-49	101	i
54	CN(c1ccc(C(=O)Nc2ccc(S(=O)(=O)N3CCCC3)cc2)cc1)S(C)(=O)=O	·	·	·	i
55	O=C(CN1CCC(NC(=O)c2cccc(F)c2)CC1)NCc1ccccc1F	-1.1	-7	70	·
56	Cc1ccccc1Cn1nc(C)c(NC(=O)/C=C/c2cnn(C)c2C)c1C	-0.6	-57	143	i

cpd	HSV augment primary fold	RGS16-Gao HTS	PKD1 kinase inh
49	1	133	-11
50	0.99	99	6
51	1.1	96	-12
52	0.9	302	3
53	0.95	105	-5
54	1	104	-9
55	·	109	-10
56	0.99	104	-7

Remaining list, next part
cpd	mol	GALR2 ag	INS promoter inh	INS promoter inh cell count	HSV augment
57	CCOc1cc(/C=N/NC(=O)COc2ccc(C)cc2)ccc1OC(=O)c1cccs1	-0.8	-16	31	i
58	CCN(CC)S(=O)(=O)c1ccc(NC2c3ncccc3C(=O)N2Cc2ccccc2)cc1 (configuration not stated)	-2.0	-7	83	i
59	Cc1ccc(-c2nnc(SCCC(=O)N3CCOCC3)o2)cc1	·	11	78	i
60	CCC(Oc1ccccc1)C(=O)NC1CCSC1=O (configuration not stated)	·	52	124	i
61	O=C1CC(c2ccccc2)Sc2ccccc2N1 (configuration not stated)	-0.7	55	145	i
62	CCS(=O)(=O)c1ccc(C(=O)Nc2ccccc2)c(Cl)c1Cl	-0.3	·	·	i
63	Cc1ccc(-c2noc(-c3ccccc3C(=O)N3CCOCC3)n2)cc1	-2.2	20	162	i
64	OCCC1CN(Cc2cccn2-c2ncccn2)CCN1C1CCCC1 (configuration not stated)	·	·	·	i

cpd	HSV augment primary fold	RGS16-Gao HTS	PKD1 kinase inh
57	1	86	-5
58	0.85	96	-6
59	0.99	107	-1
60	0.89	91	5
61	1.1	96	-8
62	0.85	105	-5
63	1	102	-5
64	1.1	100	-3

Additional structures
cpd	mol	GALR2 ag	INS promoter inh	INS promoter inh cell count	HSV augment
65	COc1ccc(C2C(C(=O)Nc3ccccc3OC)=C(C)Nc3nnnn32)c(OC)c1 (configuration not stated)	-1.1	·	·	i
66	NNC(=S)NC1CC2CC1C1C=CCC21 (configuration not stated)	·	·	·	i
67	COc1ccc(OCCC(=O)OCC(=O)NCc2ccco2)cc1	-1.4	·	·	i
68	CCOc1cccc(NC(=O)c2ccc(S(=O)(=O)N(C)C)cc2)c1	-0.1	29	181	i
69	COc1ccc(Nc2nc(-c3ccccc3)c(C(=O)Nc3cccnc3)s2)cc1	·	·	·	i
70	CCN(CC)C(=S)NC(=O)c1ccc(Cl)cc1Cl	-1.6	-3	70	i
71	O=S1(=O)N=C(Nc2ccc(N3CCOCC3)cc2)c2ccccc21	-1.9	8	99	i
72	CCN(CC)S(=O)(=O)c1ccc(NS(=O)(=O)c2ccc(OC)c([N+](=O)[O-])c2)cc1	-0.5	-4	82	i

cpd	HSV augment primary fold	RGS16-Gao HTS	PKD1 kinase inh
65	0.89	105	4
66	1	95	·
67	1	92	2
68	0.48	104	3
69	0.94	98	-5
70	1.1	91	2
71	1	104	2
72	1.1	128	-3

Whole records, quoted from the list. Screens in order: GALR2 ag, INS promoter inh, INS promoter inh cell count, HSV augment, HSV augment primary fold, RGS16-Gao HTS, PKD1 kinase inh
COc1ccc(C2C(C(=O)Nc3ccccc3OC)=C(C)Nc3nnnn32)c(OC)c1 (configuration not stated) across the screens: -1.1, ·, ·, i, 0.89, 105, 4
COc1ccc(OCCC(=O)OCC(=O)NCc2ccco2)cc1 across the screens: -1.4, ·, ·, i, 1, 92, 2
NNC(=S)NC1CC2CC1C1C=CCC21 (configuration not stated) across the screens: ·, ·, ·, i, 1, 95, ·
COc1ccc(Nc2nc(-c3ccccc3)c(C(=O)Nc3cccnc3)s2)cc1 across the screens: ·, ·, ·, i, 0.94, 98, -5
CCN(CC)C(=S)NC(=O)c1ccc(Cl)cc1Cl across the screens: -1.6, -3, 70, i, 1.1, 91, 2

Compounds as they come; about 1.3% have a hit in one of these screens.
